fixLJ activator = increases Burkholderia fixLJ two-component signaling; 0.3% of 29,000 active; B. multivorans fixK-promoter GFP reporter, 18 h; hits give high values; z-score (concentration not given with the values);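 active means replicate mean overnight rise in green fluorescent reporter signal, 3 or more SD over negative controls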;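 further: score is relative to vehicle wells of the plate; 300 nL library stock went into each well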
* marks the source's active call; other numbers are inactive results.

molecule	fixLJ activator
Cn1cc(C(NC(=O)c2ccccc2-n2cccn2)C2CC(O)C2)cn1 (stereo not drawn)	-0.47
Cc1cc(C)n(CCCn2ccnc2-c2ccnc(C(C)C)n2)n1	-2.05
COc1ccc(-c2cc3ncc(C(=O)c4cc([N+](=O)[O-])ccc4O)cn3n2)cc1	-0.77
O=S1(=O)CCC(Cn2cnc(-c3ccccc3)c2CCn2cccn2)C1 (stereo not drawn)	-0.91
COC(=O)c1cc(NC(=O)CCc2c(C)nc3c4c(C)cc(C)nc4nn3c2C)cc(C(=O)OC)c1	-0.58
CCc1nc(C)c(C(=O)Nc2cc3[nH]c(=O)[nH]c3cc2N2CCCC2)s1	0.32
Cc1ccc2[nH]c(=O)cc(C(=O)N3CCC(C(O)c4ccccn4)CC3)c2c1 (stereo not drawn)	0.24
O=C(COCC1CCCCO1)N1CCc2c(nc(-c3ccncc3)[nH]c2=O)C1 (stereo not drawn)	0.18
Cc1ccc(S(=O)(=O)c2nc(S(C)(=O)=O)sc2N(C)Cc2ccccc2)cc1	-0.1
Cc1ccccc1Nc1c(-c2ccc(Br)o2)nc2ccc(Cl)cn12	-0.81
Cc1csc2nc(COc3ccc(NC(=O)COc4ccccc4F)cc3)cc(=O)n12	-2.01
O=C(c1nc2ccc(F)cc2[nH]1)N1CCC(Oc2ccccc2F)CC1	-0.17
CN(Cc1cc2ccccc2s1)C(=O)CN1C(=O)OC(C)(C)C1=O	0.84
COc1cc(C(=O)Nc2nonc2-c2ccc(Cl)cc2)cc(OC)c1OC	-0.52
Cc1ccc(NC(=O)Cn2c(=O)n(CC3CCCO3)c(=O)c3ccccc32)cc1 (stereo not drawn)	-1.01
Cc1cc(C)c2c(n1)nn1c(C)c(CCC(=O)Nc3cccc(C)c3C)c(C)nc21	-1.34
Cc1ccc(C#N)c(N2CCCC(c3nnc(Cn4ccnc4)n3C)C2)n1 (stereo not drawn)	-0.22
COc1cccc(OCc2nc3ccccc3n2CCOc2ccccc2C)c1	-0.14
O=C(CSc1nnc(-c2ccccc2)o1)N1CCCc2ccccc21	0.26
CCOC(=O)c1cnc2c(ccc3ccccc32)c1Nc1ccccc1O	-0.46
O=c1c2sc3ccccc3c2n(Cc2cccc(C(F)(F)F)c2)c(=O)n1-c1ccccc1	0.02
COc1cc2c(cc1NC(=O)C(C)Oc1ccccc1)oc1ccccc12 (stereo not drawn)	2.52
Cc1cccc2nc(-c3ccc(N(C)C)cc3)c(Nc3ccc4c(c3)OCO4)n12	-0.16
Cc1cccc(N2CCN(C(=O)c3cn(CC(C)C)c(=O)c4c3c3ccccc3n4C)CC2)c1C	-0.03
COc1ccc(-c2nc3ccccc3s2)cc1NC(=O)COc1cccc(C)c1	0.47

Four structures from above, sorted by number of heavy atoms, largest number first.
molecule	fixLJ activator
Cc1csc2nc(COc3ccc(NC(=O)COc4ccccc4F)cc3)cc(=O)n12	-2.01
Cc1ccc(NC(=O)Cn2c(=O)n(CC3CCCO3)c(=O)c3ccccc32)cc1 (stereo not drawn)	-1.01
Cc1ccc2[nH]c(=O)cc(C(=O)N3CCC(C(O)c4ccccn4)CC3)c2c1 (stereo not drawn)	0.24
CCc1nc(C)c(C(=O)Nc2cc3[nH]c(=O)[nH]c3cc2N2CCCC2)s1	0.32

Next part
molecule	fixLJ activator
CCOC(=O)c1cc(-c2ccc(C)cc2)n(CCC(=O)Nc2ccc(C(C)C)cc2)c1C	0.77
CCn1cc(-c2ccc(C(=O)N3CCN(c4ncccn4)CC3)cc2)cn1	-0.21
Cc1cccc(N(CC(=O)Nc2cccc(Cl)c2C)S(C)(=O)=O)c1C	-1.4
CN(Cc1cc(-c2cccnc2)no1)C(=O)C(O)c1cccc(Cl)c1 (stereo not drawn)	-0.22
CCOC(=O)c1c(NC(=O)CSc2nc(-c3ccc(OC)cc3)cc(C(F)(F)F)n2)sc(C)c1C	-1.39
Cc1cc(C)c(Cn2c3ccccc3c3cnn(CC(=O)NC4CCC(C)CC4)c(=O)c32)c(C)c1 (stereo not drawn)	-0.65
Cc1nn2c(NCCc3csc(N)n3)cc(-c3ccccc3)nc2c1C	-1.01
O=C(CSc1c2c(nc3ccc(Cl)cc13)CCCC2)N1CCN(c2ccc(Cl)cc2)CC1	0.08
CCCCCCC(=O)Nc1ccc2nc3c(=O)n(C)c(=O)n(C)c3nc2c1C	-1.34
COc1cc(C(=O)Nc2ccc(-c3nc4cc(C)c(C)cc4o3)cc2)cc(OC)c1OC	0.41
Cc1ccc(-n2nnnc2SCC(=O)NCCc2ccccc2)cc1C	-3.2
N#Cc1ccc(NC(=O)COCc2cc(-c3ccc(F)cc3)on2)cc1	0.42
Cc1cncc(C(=O)N2CCN(CC3CC3)C3CS(=O)(=O)CC32)c1 (stereo not drawn)	-1.06
COc1ccc(NC(=O)Cn2c(=O)n(-c3ccc(C)cc3)c(=O)c3c2cnn3C)cc1	2.51
CCC(C)C1NC(=O)C(CCNCS(=O)(=O)O)NC(=O)C(NC(=O)C(CCNCS(=O)(=O)O)NC(=O)C(NC(=O)C(CCNCS(=O)(=O)O)NC(=O)CCCCC(C)C)C(C)O)CCNC(=O)C(C(C)O)NC(=O)C(CCNCS(=O)(=O)O)NC(=O)C(CCNCS(=O)(=O)O)NC(=O)C(C(C)CC)NC1=O (stereo not drawn)	-0.19
Cc1ccc2nc(SCC(=O)NC3CC(c4cc(=O)[nH]cn4)C3)[nH]c2c1 (stereo not drawn)	0.2
Cc1cc(CC2CN(C(=O)c3ccc(F)c(C)c3)CC2O)on1 (stereo not drawn)	-2.01
O=C(Cn1ncc2c3ccccc3n(Cc3ccc(Cl)cc3)c2c1=O)NCc1cccs1	8.25*
COc1ccc(C)cc1C(C(=O)O)N1CCC(CN2CCN(C)CC2)CC1 (stereo not drawn)	-0.69
Cc1ccc(NC(=O)c2ccc(CN3CCN(C)CC3)cc2)cc1Nc1nccc(-c2cccnc2)n1	-1.62
CC(C)N1C(=O)COC(C(=O)NCc2ccsc2)C1c1ccccc1 (stereo not drawn)	0.11
CCC(C)(C)C1CCc2c(sc(NC(=O)C3c4ccccc4Oc4ccccc43)c2C(N)=O)C1 (stereo not drawn)	-0.72
CN(CC(=O)Nc1nnc(C2CCCO2)s1)Cc1cnc2ccccc2c1 (stereo not drawn)	-0.65
CCCN1C(=O)C2CCC1CN(C(=O)Cc1c(C)[nH]c3c(F)cccc13)C2 (stereo not drawn)	-1.01
Cc1cnc(Cn2ccnc2-c2ccc(C#CC(C)(C)O)cc2)cn1	0.25
COc1cc(Cl)c(C)cc1NC(=O)c1cn(CC(C)C)c(=O)c2cc(OC)c(OC)cc12	-1.56
CCC(c1nc(-c2ccco2)nn1CC(=O)O)N1Cc2ccccc2C1=O (stereo not drawn)	-0.9
CCc1ccc(S(=O)(=O)c2cnc(SCC(=O)Nc3ccc(OC)cc3OC)[nH]c2=O)cc1	0.81
Cc1cccc(NS(=O)(=O)c2ccc3c(c2)[C@H]2C=CC[C@H]2[C@@H](c2ccc(F)cc2)N3)c1	-0.91
Cc1ccc2oc(-c3ccc(C)c(NC(=O)c4ccc5c(c4)OCCO5)c3)nc2c1	-3.22
CCOc1ccc(-n2c(CC)nc3c(cnn3-c3ccc(Cl)cc3)c2=O)cc1	-0.24
CCN(c1cccc(C)c1)S(=O)(=O)c1cc(Br)cc2c1N(C(C)=O)C(C)C2 (stereo not drawn)	0.11
CCOC(=O)c1ccc(NS(=O)(=O)c2cc(Br)cc3c2N(C(C)=O)C(C)C3)cc1 (stereo not drawn)	-0.35
CCC(C(=O)NCc1ccccc1OC)n1nc(C)n2c(cc3sccc32)c1=O (stereo not drawn)	-1.48
CCOC(=O)C1CCN(C(=O)c2nn(-c3ccc(OC)cc3)c(=O)c3c2c2ccccc2n3C)CC1	-1.23
CCN(CC)c1ccc(NC(=O)Cn2cc3c(n2)CCCC3)c(C)c1	-0.1
O=C(Nc1ccc2oc(-c3cccc4c(Br)cccc34)nc2c1)c1ccc(Br)cc1	0.78
Cn1c(Cn2ccnc2)nnc1C1CCN(CCCc2ccccc2)CC1	-2.68
Cc1ccc(Nc2nnc(-c3ccc(C)c(S(=O)(=O)N4CCCCC4)c3)c3ccccc23)cc1	0.91
COC(=O)c1cc(-c2ccc(OC)c(OC)c2)c2c(=O)[nH]c(=O)n(C)c2n1	-2.69
COc1ccc(NC(=O)C2CCCN2S(=O)(=O)c2cccc3cccnc23)cc1OC (stereo not drawn)	-1.67
COc1cc(OC)cc(C(=O)Nc2cc3c(cc2N2CCOCC2)n(C)c(=O)n3C)c1	-0.17
O=S(=O)(c1ccc(-c2cc(C(F)(F)F)[nH]n2)o1)N1CCC(O)C1 (stereo not drawn)	0.2
CCC(=O)N1CCc2cc(S(=O)(=O)NC(Cc3ccccc3)C(=O)NCc3ccc(C)cc3)ccc21 (stereo not drawn)	-1.41
Cc1cc(Nc2cccc(Br)c2)n2c(nc3ccccc32)c1C#N	-2.47
CCCc1nc(C(=O)N2CCC3(CC2)CC(=O)N(CC)CCO3)cs1	0.34
Cc1ccc2c(c1)sc1nc(=O)n(-c3ccc(Cl)cc3)c(=O)n12	-1.04
Cc1ccc(-c2ccc(CCC(=O)O)n2-c2ccc(C)c(Cl)c2)cc1	-0.21
COc1ccc(OC)c(NC(=O)CCn2cnnn2)c1	-1.69
Cc1ccccc1Cn1c(=O)n(CCCCC(=O)NCc2ccc3c(c2)OCO3)c(=O)c2ccccc21	-0.22

Next entries follow.
molecule	fixLJ activator
CCCOc1ccc(C(=O)Nc2cc3c(cc2N2CCOCC2)n(C)c(=O)n3C)cc1	0.52
COc1ccc(OCc2nc3ccccc3n2Cc2ccccc2Cl)cc1	-0.13
CCCCN(C)C(=O)CCC(=O)NNc1nc2ccccc2c2nc(C)nn12	-0.82
Cc1ccc(C)c(Cn2c3ccccc3c3cnn(CC(=O)NC4CCC(C)CC4)c(=O)c32)c1 (stereo not drawn)	-0.26
Cc1nc2cc(CNc3cc(N4CCC(O)CC4)ncn3)ccc2n1C	-2.33
CCC(=O)N1CCc2cc(Br)cc(S(=O)(=O)NCc3ccccc3)c21	-0.85
CCc1ccc(OCc2cc(=O)n3cc(C)sc3n2)cc1	-0.98
Cc1ccccc1OCCn1c(CCNC(=O)C2CCCCC2)nc2ccccc21	-2.99
COc1ccc(NC(=O)c2cc3c(=O)[nH]c4ccccc4c3n2C)cc1Cl	-0.16
CCSc1nc(CC(=O)NCCc2nc(C)cc(C)n2)cs1	0.26
COc1ccc(-c2nc(SCC(=O)c3ccc(Br)cc3)n[nH]2)cc1	0.15
CCN(CC)c1ccc(NC(=O)C2CCN(S(=O)(=O)c3ccc4c(c3)oc(=O)n4C)CC2)c(C)c1	-2.61
CN1CCC(C)(CN(C)C(=O)NCc2nc(-c3ccccc3Cl)no2)C1 (stereo not drawn)	0.83
CCN(C)CCN(C)C(=O)c1cccc(S(=O)(=O)N2CCCC2CO)c1 (stereo not drawn)	-3.54
CCc1nn(CCCC(=O)NCc2ccccc2OC)c(=O)c2cc3occc3n12	-0.49
Cc1ccc(NC(=O)C2CCCN2S(=O)(=O)c2cccc3nsnc23)c(Br)c1 (stereo not drawn)	-2.14
Cc1cc(C)n2ncc(-c3nccn3-c3ccc(N4CCCC4=O)cc3)c2n1	0.27
Cc1ccc(NC(=O)C(Cc2ccccc2)NS(=O)(=O)c2cccc3nsnc23)c(C)c1 (stereo not drawn)	-2.47
O=S(=O)(c1ccc(Br)cc1)c1nc(-c2cccs2)oc1SCc1ccc(F)cc1	-0.67
COc1ccc(Nc2nc3ccccc3c3nnc(C)n23)cc1Cl	-1.27
CCCCN(CCCNC(=O)c1cc(Nc2ccccc2OC)nc2ccccc12)c1ccccc1	-0.44
NCCOc1ccc(F)cc1C(=O)N1CCC(n2cnnc2)CC1	-1.24
COC(=O)c1ccccc1NC(=O)c1nc(S(=O)(=O)Cc2ccccc2F)ncc1Cl	2.09
CCOc1ccc(C(CC)NS(=O)(=O)c2csc(C(=O)NC)c2)cc1 (stereo not drawn)	-1.66
CCOC(=O)c1c(NC(=O)COc2ccccc2F)sc2c1CCCC2	-2.8

Grouped by structure, the entries above containing a COOH group (3)
molecule	fixLJ activator
COc1ccc(C)cc1C(C(=O)O)N1CCC(CN2CCN(C)CC2)CC1 (stereo not drawn)	-0.69
CCC(c1nc(-c2ccco2)nn1CC(=O)O)N1Cc2ccccc2C1=O (stereo not drawn)	-0.9
Cc1ccc(-c2ccc(CCC(=O)O)n2-c2ccc(C)c(Cl)c2)cc1	-0.21

(continued)
molecule	fixLJ activator
CCCn1nc(C)c(NC(=O)NCCOc2nonc2C)c1C	-0.18
Cc1coc2cc3oc(=O)c(CC(=O)NCc4ccc(F)cc4)c(C)c3cc12	-0.48
COc1ccc(C(=O)N2CC3CCC(C2)C3O)cc1OCCN (stereo not drawn)	-0.36
Cn1ccnc1CN1CCC(c2nnc(Cn3cccn3)n2C2CC2)CC1	-2.72
COc1cccc(CNS(=O)(=O)c2sc3c(c2C(=O)O)CCNC3)c1	-5.31
CCOC(=O)c1cnc2c(ccc3ccccc32)c1Nc1cccc(C(F)(F)F)c1	0.1
CC(C)OCc1cc(CN2CCN(c3cccc(C(F)(F)F)c3)CC2)c(O)c2ncccc12	-3.12
CCC(=O)NCc1cc2n(n1)CCN(Cc1ccc(F)c(C)c1)C2	-1.79
Cc1cc(C)n(-c2nc3ccccc3nc2Nc2ccc(Cl)cc2Cl)n1	-0.16
COc1cccc(Cn2nnc(C(=O)Nc3cc(C)ccc3C)c2N)c1	0.12
COc1ccc(N2CCN(Cc3cc(=O)oc4ccc(OC)cc34)CC2)cc1	-1.52
CC(=O)N1CCc2c(sc3c2c(=O)n(Cc2ccccc2)c(=O)n3Cc2cc(C)ccc2C)C1	-0.39

Assay outcomes: PubChem BioAssay, ICCB-Longwood Screening Facility, Harvard Medical School

Not all compounds are listed, so the mix of outcomes need not match the whole.
